EPAC2 ant val: validation of human EPAC2 antagonists; EPAC2 Rap1B BODIPY-GDP exchange, fluorescence; Potency, µM (titrated, usually from 112 µM), without a hit: at the highest dose activity, negative = inhibition, usual class: inhibitors; actives 1.7% (n = 16,000); AID 1645886; active means well fitted inhibition curve with a large enough effect; inconclusive means small, poorly fitted or top-dose-only effect; inactive means no such curve, though single readings can be large or run the other way;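 further: 100% = activation by cAMP agonist control; nearly all actives have a fitted effect of over 40% in size; the record reuses the description of the EPAC1 agonist screen; inactives centre near -10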
Target sequence (Q8WZA2 whole entry, looked up): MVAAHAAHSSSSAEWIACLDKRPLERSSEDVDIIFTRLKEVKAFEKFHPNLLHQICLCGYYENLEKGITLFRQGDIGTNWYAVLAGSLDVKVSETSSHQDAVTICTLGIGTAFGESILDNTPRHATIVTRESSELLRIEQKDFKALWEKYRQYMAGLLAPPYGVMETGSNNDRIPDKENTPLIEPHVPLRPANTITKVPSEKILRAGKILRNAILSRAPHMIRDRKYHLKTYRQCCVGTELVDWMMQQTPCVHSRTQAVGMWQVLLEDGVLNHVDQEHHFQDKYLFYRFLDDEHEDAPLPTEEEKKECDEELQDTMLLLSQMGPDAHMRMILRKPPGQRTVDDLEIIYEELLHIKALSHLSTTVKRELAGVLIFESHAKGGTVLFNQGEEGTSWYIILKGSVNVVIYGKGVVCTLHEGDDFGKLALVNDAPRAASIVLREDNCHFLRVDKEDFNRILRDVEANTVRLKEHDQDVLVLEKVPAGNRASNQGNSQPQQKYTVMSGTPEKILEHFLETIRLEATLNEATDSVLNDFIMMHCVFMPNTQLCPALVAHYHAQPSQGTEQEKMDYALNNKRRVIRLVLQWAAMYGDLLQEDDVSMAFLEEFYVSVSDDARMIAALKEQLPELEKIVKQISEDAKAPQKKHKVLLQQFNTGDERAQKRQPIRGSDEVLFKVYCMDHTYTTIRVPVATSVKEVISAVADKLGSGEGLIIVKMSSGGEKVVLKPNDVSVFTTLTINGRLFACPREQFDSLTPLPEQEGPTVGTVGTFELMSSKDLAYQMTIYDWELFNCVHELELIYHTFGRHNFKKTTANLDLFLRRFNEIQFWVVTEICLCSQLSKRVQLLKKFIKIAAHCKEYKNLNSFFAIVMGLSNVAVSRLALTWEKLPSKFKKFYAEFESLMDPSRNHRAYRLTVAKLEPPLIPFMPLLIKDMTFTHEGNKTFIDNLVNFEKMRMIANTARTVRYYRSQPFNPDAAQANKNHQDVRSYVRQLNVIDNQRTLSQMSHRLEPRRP
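Fluorescent exchange read-out: 100 nM EPAC2 with 250 nM RAP1B–BODIPY-GDP and 50 uM GDP; BODIPY-GDP release lowers fluorescence. Read at 480/540 nm every 5 min for 30 min at room temperature; normalized to 6.5 mM cAMP.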
Numbers without * were called inactive; ? = inconclusive; & = joins results of further samples; ! = repeats disagree; [ ] = another dose, or the depositor's remark. Potency means the concentration at half of the fitted maximal effect.

SMILES | EPAC2 ant val
O=C(NC1CC1)[C@@H]1C[C@@H](Sc2nc3ccccc3[nH]2)CN1CC1CCCCC1 | -35%
COc1ccc(CNc2nc(-c3cccnc3)nc3ccccc23)c(OC)c1 | ?
C[C@H](O)C(=O)C1=Nc2c(nc(N)[nH]c2=O)NC1 | -17%
O=C(Oc1ccccc1)N1CCC2(CC1)CN(c1ccncc1)C2 | -23%
CCCCCCCC/C=C\CCCCCCCC(=O)OCC(CO)OC(=O)CCCCCCC/C=C\CCCCCCCC (stereo not given) | -29%[11.4 µM]
CC(O)[C@H]1CC[C@H]2[C@@H]3CC[C@@H]4C[C@@H](O)CC[C@]4(C)[C@H]3CC[C@]12C (stereo not given in full) | -3%
CC(=O)N1CCN(c2nc3cc(C)ccc3cc2CN(C(=O)c2cccc3ccccc23)C2CC2)CC1 | -20%
CN(C)CCCSC(=N)N | 0%&7%&-16%
OCC1OC(n2cnc3c(Cl)ncnc32)C(O)C1O (stereo not given) | 0%
O=C(OC1Cc2c(O)cc(O)cc2OC1c1cc(O)c(O)c(O)c1-c1c(C2Oc3cc(O)cc(O)c3CC2OC(=O)c2cc(O)c(O)c(O)c2)cc(O)c(O)c1O)c1cc(O)c(O)c(O)c1 (stereo not given) | 8%
O=C(NCC1(N2CCCCC2)CCCC1)c1cnn(-c2nccc(-c3cccs3)n2)c1C1CC1 | -17%
COC(=O)C[C@H]1c2cc(C(F)(F)F)ccc2S(=O)(=O)N1C1CCCC1 | ?
COC(=O)/C(=C1\OC(=O)C(c2ccccc2)C1=O)c1ccccc1 (stereo not given) | -11%
Nc1ncnc2c1nc(Sc1ccc(Cl)cc1)n2[C@H]1OC2COP(=O)(O)O[C@@H]2C1O (stereo not given in full) | 0.5µM*
COc1ncc2nc(-c3cccs3)c(=O)n(Cc3ccc(F)cc3)c2n1 | -27%
CC(=O)NS(=O)(=O)c1ccc(N)cc1 | -8%&-12%
Nc1nc2c(ncn2COC(CO)CO)c(=O)[nH]1 | ?
CC(=O)c1ccc(F)c(-c2cc(C)cc3c2OC(CNC(=O)Cn2nc(C)nc2C)C3)c1 (stereo not given) | 2%
CCC(=O)N1CCN(C(=O)c2ccccc2)CC1 | -14%
O=C(c1cnccn1)N1CCC2(CCCN(c3ccccc3)C2)CC1 | ?
Cc1c(C(=O)NCC2CCCN(C)C2)cnn1-c1ncc2c(n1)-c1ccccc1CCC2 (stereo not given) | -11%
CCCN1CCC(=O)N([C@H](COc2ccccc2)Cc2ccccc2)CC1 | 16%
Cc1c(C(=O)NC(C)(C)CO)sc2ncnc(NCCN(C)C)c12 | -7%
COc1ccccc1-c1ccnc(-n2ncc(C(=O)NC(c3cccnc3)C(F)(F)F)c2C)n1 (stereo not given) | 6%
CNCCC(Oc1ccc(C(F)(F)F)cc1)c1ccccc1 (stereo not given) | -3%&0%&7%
CN(C)c1nc2cc3c(cc2cc1CN(CC1CCCO1)C(=O)c1cccc(F)c1)OCO3 (stereo not given) | ?
COc1ccc(C(=O)N2CCC3(CC2)CCN(c2ccccc2)CC3)cc1 | -20%
COc1cc(-c2noc(C)c2C(=O)NCCc2c[nH]c3ccccc23)cc(OC)c1OC | -22%
Cc1nc2cc(NC(=O)C3CC34CCN(Cc3ccc(O)c(Cl)c3)CC4)ccc2s1 (stereo not given) | -7%
CC(=O)CC(c1ccccc1)c1c(O)c2ccccc2oc1=O (stereo not given) | ?
O=C(c1cccc(F)c1)N1CCC2(CC1)CCN(c1cccc(-c3ccccc3)c1)CC2 | -17%
Nc1ccc(C=O)cc1 | -15%
COc1cccc(Cn2c(=O)cnc3cnc(N(C)C)nc32)c1 | -32%
N#CCCN1CCN(Cc2ccccc2)CCC1=O | 1%
COC(=O)C1=C(C)NC(C)=C(C(=O)OCC(C)=O)C1c1ccccc1[N+](=O)[O-] (stereo not given) | -8%
Cc1nc2cnc(Nc3ccccc3)nc2n(C[C@H]2CCCO2)c1=O | -4%
O=C(O)C1CCNCC1 | -7%
Cc1cnc(CNc2ccnc(-c3c(C)noc3C)n2)cn1 | -11%
O=C(c1cccc(F)c1)N1CCC2(CCN(Cc3cc(C(F)(F)F)cc(C(F)(F)F)c3)CC2)CC1 | ?
NC(=O)c1ccccc1-c1nc(-n2ccnc2)c2ccccc2n1 | -20%
COc1ccc(CNc2ncncc2-c2ccc3c(c2)OCO3)c(OC)c1 | ?
N#Cc1cccc(NC(=O)N2CC[C@@]3(CCCN(C(=O)c4csnn4)C3)C2)c1 | -21%
Cc1cnc(CNc2ncnc3ccc(-c4ccc(N(C)C)cc4)cc23)cn1 | -22%
COC(=O)[C@@H]1CCCN1Cc1ccc2c(c1)CN(Cc1cc(OC)c3c(c1)OCO3)CCO2 | -38%
CN(Cc1ccco1)c1ncncc1-c1ccoc1 | -10%
CC(C)CN(C[C@@H](O)[C@H](Cc1ccccc1)NC(=O)O[C@@H]1CCOC1)S(=O)(=O)c1ccc(N)cc1 | -5%
Cc1ccc(CNc2nc(CN3CCNC(=O)C3)nc3ccccc23)o1 | 3%
COCCNc1nc(-c2ccc(N(C)C)cc2)nc2ccccc12 | -17%
COc1ccccc1-c1cncnc1NCc1cccnc1 | -11%
CCOC(=O)CCCCCCCCCCCCC1C=CCC1 (stereo not given) | -17%
Later entries:
SMILES | EPAC2 ant val
CCCCCCCCCCOc1cc2c(=O)c(C(=O)OCC)c[nH]c2cc1OCC | -9%
CC1(C)C=CC(=O)[C@]2(C)C1CC(=O)[C@]1(C)C2CC[C@@]2(C)C(c3ccoc3)OC(=O)C3OC321 (stereo not given in full) | -13%
N#CCCn1c(=O)c(-c2ccc(Cl)cc2)nc2cnc(OCc3ccccc3)nc21 | -12%
O=C(NC1CCN(Cc2ccccc2)C1)c1cnn(-c2ncc3c(n2)-c2ccccc2CC3)c1C1CC1 (stereo not given) | 3%
COc1cc(N)c(Cl)cc1C(=O)OCCCN1CCCCC1 | ?
CN(Cc1ccccc1)Cc1ccccc1 | 0%
COc1cc(C(O)CO)ccc1O (stereo not given) | -20%
NC(Cc1cnc[nH]1)C(=O)Nc1ccc2ccccc2c1 (stereo not given) | -9%
O=C(O)c1cc(=O)cc(C(=O)O)[nH]1 | 27%
CCNc1ncc2nc(-c3cccs3)c(=O)n(-c3ccc(OC)cc3)c2n1 | -1%
CCN1CCCC1CNCc1cc2ccc(SC)cc2nc1-c1cc(OC)ccc1OC (stereo not given) | ?
CN(Cc1cnc2nc(N)nc(N)c2n1)c1ccc(C(=O)NC(CCC(=O)O)C(=O)O)cc1 (stereo not given) | -10%
CC(C)C1=CC2=CC[C@H]3[C@](C)(C(=O)O)CCC[C@]3(C)C2CC1 (stereo not given in full) | -21%
N#CCCn1c(=O)c(-c2ccc(F)cc2)nc2cnc(Oc3cccc(Cl)c3)nc21 | -7%
O=C(NOCC1CC1)c1ccc(F)c(F)c1Nc1ccc(I)cc1Cl | -15%
COC(=O)C1=C(C)NC(COC(N)=O)=C(C(=O)OC(C)C)C1c1cccc(Cl)c1Cl (stereo not given) | 50µM*
CC(=O)O[C@]1(C(C)=O)CC[C@H]2[C@@H]3C=C(C)C4=CC(=O)CC[C@]4(C)[C@H]3CC[C@@]21C | -1%[56.6 µM]
O=C(CN1C(=O)c2ccccc2C1=O)NCC1Cc2cccc(-c3ncccn3)c2O1 (stereo not given) | ?
COc1ccccc1CN1CCC2(CCC(CNC(=O)c3ccccc3N(C)C)O2)CC1 (stereo not given) | -17%
COc1ccc(-c2nc3cc(C)ccc3cc2CN(C(=O)c2cc(C)nn2C)C2CC2)cc1OC | -25%

Retrieved by compound from the list above:
SMILES | EPAC2 ant val
O=C(O)C1CCNCC1 | -7%
O=C(CN1C(=O)c2ccccc2C1=O)NCC1Cc2cccc(-c3ncccn3)c2O1 (stereo not given) | ?
CN(C)c1nc2cc3c(cc2cc1CN(CC1CCCO1)C(=O)c1cccc(F)c1)OCO3 (stereo not given) | ?
COc1cc(N)c(Cl)cc1C(=O)OCCCN1CCCCC1 | ?
CCOC(=O)CCCCCCCCCCCCC1C=CCC1 (stereo not given) | -17%
NC(=O)c1ccccc1-c1nc(-n2ccnc2)c2ccccc2n1 | -20%
COc1ccc(C(=O)N2CCC3(CC2)CCN(c2ccccc2)CC3)cc1 | -20%

Further compounds follow.
SMILES | EPAC2 ant val
Cc1ccccc1CN1[C@H]2CCCC[C@@H]2OCCS1(=O)=O | -23%
Cn1c(=O)c(-c2ccc(Cl)cc2)nc2cnc(Nc3ccccc3)nc21 | -5%
COCCN(C)C(=O)c1cnn(-c2ncc3c(n2)-c2ccccc2CC3)c1C | 4%
CCCCCCCCCCCCCCCCCCc1ccc(C(=O)/C=C\C(=O)O)cc1 | ?
Cn1cc(CN2CCC(C3(c4ccccn4)NC(=O)N(CC4CCCO4)C3=O)CC2)c2ccccc21 (stereo not given) | -2%
C=CC[n+]1cccc2cc(Br)ccc21 | ?
COC(=O)C[C@H]1c2cc(C(F)(F)F)ccc2S(=O)(=O)N1C1CCCCC1 | ?
COc1ccccc1-c1cc(NCc2cnc(C)cn2)ncn1 | -13%
CCC1OC(=O)C[C@@H](O)[C@H](C)[C@@H](O[C@@H]2O[C@H](C)C[C@H](N(C)C)[C@H]2O)[C@@H](CC=O)C[C@@H](C)C(=O)/C=C/[C@]2(C)OC2C1C (stereo not given in full) | 10%&-21%
CCNc1ncc2nc(-c3ccccc3)c(=O)n(-c3ccc(OC)cc3)c2n1 | 20%
COc1cccc(-c2nccc(NCc3ccccc3OC)n2)c1 | -30%
CC1CN(CCC(=O)NC(c2cccnc2)C(F)(F)F)Cc2cc(Cl)ccc2O1 (stereo not given) | -34%
O=C(c1ccco1)N1CCC2(CC1)CN(Cc1cc(C(F)(F)F)cc(C(F)(F)F)c1)C2 | -31%
COc1ccccc1CNc1ncnc2ccc(-c3c(C)noc3C)cc12 | -16%
CN(C)Cc1ccccc1-c1cncnc1NCc1ccccc1 | -12%
COC1=CC(=O)C(O)=C/C1=C\C=C\c1ccccc1 | 0%
COc1cccc(Nc2ncc3nc(-c4cccs4)c(=O)n(C[C@H]4CCCO4)c3n2)c1 | 1%
CC1(C)CC[C@]2(C(=O)O)CC[C@]3(C)C(=CCC4[C@@]5(C)CC[C@H](O)C(C)(C)C5[C@H](O)C[C@]43C)C2C1 (stereo not given in full) | ?
COc1cccc(CNC(=O)c2c(OC)cc(=O)n3c2CCN(C(=O)C2CC=CCC2)CC3)c1 (stereo not given) | -14%
Cn1cc(-c2nc3cncnc3n(Cc3ccccc3Cl)c2=O)c2ccccc21 | -18%
CN1CCN(c2ncc3nc(-c4cc(F)cc(F)c4)c(=O)n(C4CC4)c3n2)CC1 | -24%
CC[N+](C)(CC)CCC[n+]1c(-c2ccccc2)c2cc(N)ccc2c2ccc(N)cc21 | 50µM*
OC[C@@H]1O[C@@H](n2cnc3c(N[C@H]4CCC[C@@H]4O)ncnc32)[C@H](O)[C@H]1O | -26%
O=C(CN1Cc2ccccc2OC(c2ccccc2F)C1)NC(c1ccccn1)C(F)(F)F (stereo not given) | ?
COCCn1c(=O)c(C)nc2cnc(Nc3ccccc3)nc21 | 1%
O=C1OC(c2ccc(O)cc2)(c2ccc(O)cc2)c2ccccc21 | 35µM*!
CCOC(=O)C1(O)Oc2cc(OC)cc(OC)c2C(=O)C1c1ccccc1 (stereo not given) | -22%
COc1cccc(Cc2nc3cccnc3n2C2CCN(C(=O)c3n[nH]c4c3CCCC4)CC2)c1 | -1%
COC(=O)/C=C/c1cc(O)ccc1O | -12%
COc1ccc(C(=O)N2CCC3(CCCN(c4ccc(-c5ccccc5)cc4)C3)CC2)cc1 | -27%
N[C@H](C(=O)O)[C@H]1C[C@@H]1C(=O)O | 5%&-3%
Cc1nc2cnc(OCc3ccccc3)nc2n(Cc2ccc(F)cc2)c1=O | -29%
CCN(CC)CC#CCOC(=O)C(O)(c1ccccc1)C1CCCCC1 (stereo not given) | -15%&-10%
CC(=O)NCCc1c[nH]c2ccc(O)cc12 | 0%&-12%&-19%
COc1c(O)cc(O)cc1O | 4%
CC1=C(/C=C/C(C)=C/C=C/C(C)=C/C(=O)Nc2ccc(O)cc2)C(C)(C)CCC1 | ?
Cc1cc(C(=O)NCc2nnc3n2CCN(Cc2ccc(C)c(C)c2)CC3)c(C)o1 | -23%
CC(C)=CCC/C(C)=C/CC/C(C)=C/CO | 45µM*!
C[C@@H]1C/C=C/C=C/C=C/C=C/[C@H](O[C@@H]2O[C@H](C)[C@@H](O)[C@H](N)[C@@H]2O)C[C@@H]2O[C@](O)(C[C@@H](O)C[C@H]3O[C@@H]3/C=C/C(=O)O1)C[C@H](O)[C@H]2C(=O)O | 1%
NC(=O)[C@H]1O[C@@H](O)[C@H](O)[C@@H](O)[C@@H]1O | -4%
CCCCN1C[C@H](Cc2ccccc2)[C@@H](CC(=O)Nc2ccccc2)C1=O | ?
O=C(O)[C@@H]1CN[C@@H](C(=O)O)C1 | -8%
CCC1CN(Cc2ccc(COC)o2)Cc2cc(OC)ccc2O1 (stereo not given) | -11%
Cn1cc(-c2nc3cnc(N4CCNCC4)nc3n(C)c2=O)c2ccccc21 | -27%
CN(C)c1ccc(/C=C/c2sc3ccccc3[n+]2CCCCBr)cc1 | 23%
COc1cccc(Cn2c(=O)c(-c3cccs3)nc3cnc(N4CCN(C)CC4)nc32)c1 | -13%
CC[C@H]1C(=O)[C@@H](Cc2ccccc2)[C@@H]2CCN3C(=O)CCC[C@H]1[C@H]23 | -6%
COC(=O)CC[C@H](N)C(=O)O | 9%
COCCCNc1ncnc2sc(C(=O)N3CCCCC3)c(C)c12 | 8%
O=C1c2ccccc2-n2c1nc1ccccc1c2=O | 4%
O=S(=O)(O)c1ccc(O)cc1 | -3%

Some of the compounds tested, so the mix of outcomes need not match the whole.
